Cruzain Triton = cruzain (T. cruzi) inhibition with detergent; AID 1478; Potency, µM, for inactives: max response, negative = inhibition, usual class: inhibitors; purified cruzain, Z-FR-AMC fluorescence, 0.01% Triton; 200,000 tested, 0.43% active; P25779; active = well fitted curve in the direction sought with a large enough effect; inconclusive = small, poorly fitted or top-dose-only effect, or another doubt; inactive = no such curve, though single readings can be large; an effect the other way counts as inactive or inconclusive;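 note: plate controls were neutral wells for no effect and buffer without enzyme for full effect; nearly all actives have a fitted effect of over 40% in size; top concentration of the series not given in the record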
Target sequence (P25779 123-467 limits assumed): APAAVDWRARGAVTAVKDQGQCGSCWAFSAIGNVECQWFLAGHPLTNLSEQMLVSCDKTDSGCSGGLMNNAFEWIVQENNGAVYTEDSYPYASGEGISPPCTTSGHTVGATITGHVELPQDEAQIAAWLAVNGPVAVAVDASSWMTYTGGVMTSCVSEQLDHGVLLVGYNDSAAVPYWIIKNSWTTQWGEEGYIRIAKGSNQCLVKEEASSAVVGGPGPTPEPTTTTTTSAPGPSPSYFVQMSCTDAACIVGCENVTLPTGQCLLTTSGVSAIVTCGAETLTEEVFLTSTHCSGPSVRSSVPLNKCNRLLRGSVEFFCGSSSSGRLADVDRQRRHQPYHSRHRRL
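In this qHTS format, compounds are incubated with 1.5 nM cruzain for 15 min at room temperature before 2 uM Z-FR-AMC is added. Release of AMC is followed at 360/450 nm, and progress is taken as the 60 s fluorescence difference.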
LASV entry inh = inhibitors of Lassa virus binding or cell entry; Lassa virus pseudotype entry inhibition, cell reporter; control for the full effect not named in the record; Potency, µM (series often up to 37.9 µM), inactives show at the top dose activity change, negative = inhibition, hits mostly inhibitors; 300,000 tested, 1.2% active; AID 540256; active means well fitted inhibition curve with a large enough effect; inconclusive means small, poorly fitted or top-dose-only effect, or effect the other way; inactive means flat fitted curve, though single readings scatter; tested in HEK293 cells; note: % is set by controls: 0 for no effect and ±100 for the full control effect; nearly all actives have a fitted effect of over 50% in size; luciferase read-out
RE007 growth inh = less growth of the S. pombe RE007 Vpr strain. AID 651644. Potency, µM (series often up to 92.2 µM), inactives show top-dose activity change, negative = less growth. 360,000 tested, 0.21% active. S. pombe RE007 Vpr strain, BacTiter-Glo ATP luminescence, 24 h; control for the full effect not named in the record; active = well fitted falling curve with a large enough effect; inconclusive = small, poorly fitted or top-dose-only effect; inactive = no such curve, though single readings can be large or run the other way;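 note: % is set by controls: 0 for no effect and ±100 for the full control effect; nearly all actives have a fitted effect of over 50% in size; the assay follows cell death caused by Vpr and the record does not say whether a fall means rescue or toxicity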
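Fission yeast RE007 carrying one integrated HIV-1 vpr copy, seeded at OD 0.01 in PMG+AL medium with 23 nL pinned compound. Grown 24 h at 30 degrees; viability read by BacTiter-Glo luminescence after 5 min.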
2A StopGo = FMDV 2A StopGo reporter, luciferase signal; 410,000 tested, 1.2% active; Potency, µM (series often up to 57.9 µM), for inactives: top-dose signal change, negative = less light; human cells with a luciferase reporter of 2A StopGo recoding; control for the full effect not named in the record; active = well fitted falling curve with a large enough effect; inconclusive = small, poorly fitted or top-dose-only effect; inactive = no such curve, though single readings can be large or run the other way; tested in HEK293T cells; note: % is set by controls: 0 for no effect and ±100 for the full control effect; nearly all actives have a fitted effect of over 45% in size; luciferase light after 4 h
SARS PLpro yeast = inhibitors of SARS-CoV papain-like protease in yeast; 330,000 tested, 0.19% active; S. cerevisiae expressing SARS-CoV PLpro, growth rescue; control for the full effect not named in the record; Potency, µM (top dose mostly 32.9 µM), for the others: at the highest dose activity, positive = growth rescue; note: 0% is about no effect; nearly all actives have a fitted effect of over 55% in size; growth read by luminescence after 48 h
NS1 inh = blocks influenza NS1 protein function; S. cerevisiae slowed by influenza A NS1, growth recovery by OD600; Potency, µM (series often up to 46.1 µM), for inactives: top-dose activity, positive = more growth; 270,000 tested, 0.4% active; note: actives are rising curves; nearly all actives have a fitted effect of over 50% in size
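Compounds were scored for reversing the slow growth caused by influenza A NS1 in S. cerevisiae, measured by optical density at 600 nm. Assay medium contained 2% galactose at pH 6.0; NS1-free yeast of the same strain were the positive control.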
Cruzain noTriton = blocks cruzain activity in detergent-free assay | purified cruzain, Z-FR-AMC fluorescence, no detergent | 200,000 tested, 2.3% active | Potency, µM, without a hit: max response, negative = inhibition, actives largely listed as inhibitors | P25779; active = well fitted curve in the direction sought with a large enough effect; inconclusive = small, poorly fitted or top-dose-only effect, or another doubt; inactive = no such curve, though single readings can be large; an effect the other way counts as inactive or inconclusive;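 note: plate controls were enzyme without inhibitor for no effect and buffer without enzyme for full effect; nearly all actives have a fitted effect of over 40% in size; top concentration of the series not given in the record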
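Detergent-free condition (0.00005% Triton X-100) in acetate buffer pH 5.5 with DTT. 1.5 nM enzyme and compound were pre-mixed 15 min, then 2 uM Z-FR-AMC substrate added; reaction progress from fluorescence change between first and third reads (60 s).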
Marburg entry inh = blocks Marburg virus binding to or entry into cells; Marburg virus pseudotyped entry inhibition, cell reporter; control for the full effect not named in the record; about a third of the inactives were read at about 46 µM; Potency, µM (titrated, usually from 37.8 µM), inactives show at the top dose activity change, negative = inhibition, hits mostly inhibitors; 300,000 tested, 1.8% active; active = well fitted inhibition curve with a large enough effect; inconclusive = small, poorly fitted or top-dose-only effect, or effect the other way; inactive = flat fitted curve, though single readings scatter; tested in HEK293 cells; about a fifth of its hits are not listed in these tables; note: % is set by controls: 0 for no effect and ±100 for the full control effect; luciferase read-out
* hit, by the source's call; ? = inconclusive; nt = no result given; & = joins results of further samples; [ ] = dose if it differs, or a comment. Unless noted, calls come from the whole dose curve; as a rule, active means well fitted rising curve with a large enough effect; inconclusive means small, poorly fitted or top-dose-only effect; inactive means no such curve, though single readings can be large or run the other way. Potency is the fitted concentration of half-maximal effect. An unsorted share of the library; about 4.8% have a hit in one of these screens.

The first 5 compounds, ahead of the listing:
SMILES | Cruzain Triton | LASV entry inh | RE007 growth inh | 2A StopGo | SARS PLpro yeast | NS1 inh | Cruzain noTriton | Marburg entry inh
CCn1cc(-c2n[nH]c(=S)n2-c2ccc(C)cc2Br)c(=O)c2ccc(C)nc21 | nt | nt | -18% | -4% | 1% | -12% | nt | nt
CCN(c1ccccc1)c1nc2nonc2nc1NCCO | nt | 11%[46.1 µM] | -1% | -6% | -1% | -1% | nt | -3%[46.1 µM]
C/C(=N\NC(=O)c1nnn(-c2nonc2N)c1CN(C)c1ccccc1)c1cccs1 | nt | nt | -15% | 3% | 0% | 12% | nt | nt
C/C(=N\NC(=O)C(=O)Nc1cccc(C(F)(F)F)c1)c1ccc(Cl)s1 | 0.4% | -2% | 0% | 3% | -5% | 8% | 16µM* | -23%
O=c1[nH]n(-c2ccc([N+](=O)[O-])cc2)c(=O)c2ccccc12 | nt | ? | -16% | 4% | -1% | -52% | nt | 4%[46.1 µM]

The whole of this part, repeating the preview:
SMILES | Cruzain Triton | LASV entry inh | RE007 growth inh | 2A StopGo | SARS PLpro yeast | NS1 inh | Cruzain noTriton | Marburg entry inh
CCn1cc(-c2n[nH]c(=S)n2-c2ccc(C)cc2Br)c(=O)c2ccc(C)nc21 | nt | nt | -18% | -4% | 1% | -12% | nt | nt
CCN(c1ccccc1)c1nc2nonc2nc1NCCO | nt | 11%[46.1 µM] | -1% | -6% | -1% | -1% | nt | -3%[46.1 µM]
C/C(=N\NC(=O)c1nnn(-c2nonc2N)c1CN(C)c1ccccc1)c1cccs1 | nt | nt | -15% | 3% | 0% | 12% | nt | nt
C/C(=N\NC(=O)C(=O)Nc1cccc(C(F)(F)F)c1)c1ccc(Cl)s1 | 0.4% | -2% | 0% | 3% | -5% | 8% | 16µM* | -23%
O=c1[nH]n(-c2ccc([N+](=O)[O-])cc2)c(=O)c2ccccc12 | nt | ? | -16% | 4% | -1% | -52% | nt | 4%[46.1 µM]
CC(C)(C)NC(=O)c1ccc(C(=O)NC(C)(C)C)cc1 | nt | 9%[46.1 µM] | -7% | 11% | 2% | 9% | nt | -11%[46.1 µM]
CCOC(=O)C1(Cc2ccc(OC)cc2)CCN(C(=O)CC2CCC(=O)N2)CC1 (stereo not drawn) | nt | 6% | -7% | 16% | 1% | -8% | nt | 15%
Cc1cccc(N2CCN(C(=O)CCCCn3c(=O)[nH]c4ccsc4c3=O)CC2)c1C | -4.9% | ? | nt | ? | nt | nt | ? | ?
Cc1ccc(NS(=O)(=O)c2cccc(C(=O)NNC(=O)NC3CCCCC3)c2)c(C)c1 | 0.5% | 0% | 4% | 28% | 5% | -27% | 6% | 1%
CCOC(=O)N1CCN(c2nc(-c3cccs3)cc(C(F)(F)F)n2)CC1 | 0.5% | ? | 8% | -29% | -1% | 8% | -1% | -20%
CCOc1ccc(/C=C2\CCC(C3CCCC3)C2=O)cc1 (stereo not drawn) | nt | 1%[46.1 µM] | -2% | -2% | 1% | 2% | nt | ?
CC1(C(=O)Nc2nccs2)Cc2ccccc2C(=O)O1 (stereo not drawn) | 0.2% | 9%[14.3 µM] | 12% | 5% | 3% | 2% | 3% | 15%
CCOc1ccc(C(=O)NCC(c2cccs2)S(=O)(=O)c2ccccc2)cc1 (stereo not drawn) | -3.9% | -12%[46.1 µM] | nt | -9% | nt | nt | -15% | nt
CCOC(=O)C1=C(C)OC(N)=C(C#N)C1c1c(C)nn(-c2ccc(C)cc2)c1Cl (stereo not drawn) | -5.7% | nt | nt | nt | -3% | -15% | -3% | 4%
COc1cccc(C(O)c2cnc(C(C)C)n2C)c1 (stereo not drawn) | nt | 2% | 15% | 2% | 0% | 0% | nt | 12%[46.1 µM]
CCc1ccc(OCC(=O)OCC(=O)c2c(N)n(C)c(=O)n(C)c2=O)cc1 | nt | -22% | -17% | -19% | 1% | nt | nt | 20%[14.2 µM]
CN(C)c1ccc(NC(=O)COC(=O)Cn2nnc3ccccc32)cc1 | -1.8% | -1% | 1% | -8% | -13% | 11% | 13% | 0%
O=C(CSc1n[nH]c(-c2ccccc2Cl)n1)NCc1cccc(C(=O)O)c1 | nt | 5%[46.1 µM] | 6% | 26% | -1% | 3% | nt | 0%[46.1 µM]
Cc1cccc(-c2cc(C(=O)Nc3c(C)n(C)n(-c4ccccc4)c3=O)c3ccccc3n2)c1 | nt | -25% | -6% | -26% | 4% | 1% | nt | ?
CCO[C@@H]1OC(C(=O)N2CCN(Cc3ccc4c(c3)OCO4)CC2)=C[C@H](c2csc3ccccc23)[C@H]1CCCO | nt | nt | -4% | -10% | -1% | -17% | nt | nt
CCc1ccccc1N1C(=O)CC(Sc2nccc(C)n2)C1=O (stereo not drawn) | nt | nt | 2% | 3% | -6% | 27% | nt | nt
COc1ccc(NC(=O)CN(C)C(=O)c2sc3cc(Cl)ccc3c2Cl)cc1 | nt | -22% | -2% | -14% | -3% | nt | nt | 3%
COc1cc(NC(=O)N2CCC3(CC2)Nc2cc(F)ccc2-n2cccc23)cc(OC)c1OC | -7.0% | -25%[46.1 µM] | nt | -14% | nt | nt | ? | nt
CCC(=O)NNC(=O)CCC(=O)Nc1cccc(Cl)c1C | nt | -1% | -17% | -4% | 2% | nt | nt | 11%[46.1 µM]
CCOc1cc(/C=N\NC(=O)c2ccc(C)nc2)ccc1OC(=O)c1ccc(F)cc1 | nt | -14% | -14% | 4% | -1% | 9% | nt | 23%[46.1 µM]
Remaining list, next part
SMILES | Cruzain Triton | LASV entry inh | RE007 growth inh | 2A StopGo | SARS PLpro yeast | NS1 inh | Cruzain noTriton | Marburg entry inh
Brc1cccc(OCCN2CCCCC2)c1 | -2.2% | -17% | -8% | -1% | -2% | 4% | 2% | ?
C=CCn1c(=N)c(C(=O)NCCCOC)cc2c(=O)n3ccccc3nc21 | 32µM* | -10% | 0% | 2% | -2% | -5% | 25µM* | -29%[46.1 µM]
COc1ccc(C(=O)Cn2ccsc2=NC(C)=O)cc1 | nt | 12% | -4% | 5% | 7% | nt | nt | ?
CCCNC(=O)c1ccc(-c2nn(C)c(=O)c3ccccc23)cc1 | nt | -6%[46.1 µM] | -2% | -7% | 0% | ? | nt | ?
Cn1cc(C(=O)NC2CCCCCCC2)c(=O)c2cc(S(=O)(=O)N3CCCC3)ccc21 | -2.1% | 6% | -5% | -23% | 8% | -6% | ? | -21%&4%
O=C(Nc1cccc(C(=O)N2CCOCC2)c1)c1ccccc1Br | nt | -11% | 7% | -6% | -2% | 5% | nt | 4%
CCCCOC(=O)Nc1ccc(N(C)C)cc1 | -4.8% | ? | -18% | 0% | 10% | 17% | -6% | ?
COc1ccc(N2C(=O)C(Cl)=C(N3CCN(Cc4ccccc4)CC3)C2=O)cc1 | 18µM* | -5% | -19% | -26% | -4% | -40% | -29% | 13%&0%
CCOC(=O)/C=C1\SCC(=O)N1CCOc1cccc(Br)c1 | -10% | -1% | 31% | -26% | -9% | -4% | -1% | ?
CCOC(=O)c1ccc(N=Nc2c(C)[nH]n(-c3ccccc3)c2=O)cc1 | nt | nt | -7% | 1% | -5% | -6% | nt | nt
CC(C)(C)c1cc(NC(=O)CCl)n(-c2ccccc2)n1 | nt | ? | 0% | ? | -3% | -45% | nt | ?
Cc1ccc(C(=O)N(CN2CCCC2=O)c2ccc(F)cc2)cc1C | 5.6% | 2% | 7% | -7% | -1% | -4% | -4% | 4%
Cc1cccc(C)c1OCC(=O)Nc1c(C(=O)c2ccccc2)oc2ccccc12 | 0.1% | 4%[46.1 µM] | nt | -14% | nt | nt | ? | -7%[46.1 µM]
CC(=O)c1ccc(N(C(=O)Cn2nnc3ccccc32)C(C(=O)NCc2ccccc2)c2ccccn2)cc1 (stereo not drawn) | -2.5% | -4% | 12% | 48%[activator] | 18µM* | -8% | 3% | ?
Cc1cc(C)c(Cn2c3ccccc3c3cnn(CC(=O)NCCC4=CCCCC4)c(=O)c32)c(C)c1 | -3.0% | ? | nt | -1% | nt | nt | -4% | -8%[46.1 µM]
O=C(NCc1cccnc1)c1cc(-c2ccco2)on1 | -3.3% | -1% | 3% | 70%[activator] | 2% | -25% | -3% | 21%
COc1ccc(OCCC(=O)NCCN2CCOCC2)cc1 | nt | 4% | 12% | -10% | 1% | nt | nt | ?
CCOC(=O)Cn1c(=N)n(Cc2ccc(C(C)(C)C)cc2)c2ccccc21 | -2.7% | 9%[46.1 µM] | nt | ? | nt | nt | -1% | nt
CCOc1cc(C(=O)OCc2cc(=O)n3nc(CC)sc3n2)cc(OCC)c1OCC | -2.0% | -19%[46.1 µM] | nt | -7% | nt | nt | 6% | nt
Cc1cc(NC(=O)c2cc3nc4c(c(C(F)(F)F)n3n2)CCc2ccccc2-4)no1 | 6.4% | nt | nt | nt | -1% | -2% | -30% | nt
CC1=C(C(=O)Nc2cc(C(=O)NCCC(C)C)ccc2C)SCCO1 | nt | nt | 7% | 0% | -1% | -4% | nt | nt
CCN(CC(=O)Nc1c(F)cccc1F)C(=O)C1CCN(C(=O)c2ccc(Cl)cc2)CC1 | nt | 20% | -1% | -11% | 1% | nt | nt | 28%
Cn1c(C(=O)NCCc2ccccc2)cc2c(=O)n3ccccc3nc21 | -3.6% | 36%[46.1 µM] | nt | 40%[activator] | nt | nt | -4% | nt
COc1ccccc1-c1noc(CCC(=O)Nc2cccc(C(F)(F)F)c2)n1 | -10% | ? | -2% | ? | -12% | -36% | 28% | ?
Cc1ccc(Cl)cc1N1CCN(C(=O)c2noc(C)c2[N+](=O)[O-])CC1 | nt | nt | -10% | 4% | -6% | -16% | nt | nt
Cc1csc(NC(=O)CNS(=O)(=O)c2cccs2)n1 | 9.5% | 1% | -2% | -12% | 6% | 3% | -2% | -4%
CC1CN(c2ccc([N+](=O)[O-])c(NCCOc3ccc(Cl)cc3)c2)CC(C)N1 (stereo not drawn) | nt | nt | 14% | -6% | 5% | 21% | nt | nt

High-throughput results from PubChem BioAssay.
